Arbovirus anti – blocks arbovirus infection | arbovirus infection cell-based antiviral screen | inhibition, % at 10 µM | 200,000 tested, 0.37% active | AID 1251;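 active = inhibition from about 30%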;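 also: bluetongue infection of BSR cells; cell survival read as ATP light after 72 h; 0% = infected wells without compound and 100% = uninfected wells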
RecA intein inh – Mtb RecA intein splicing inhibition | P9WHJ3 | cell-free RecA intein splicing, fluorescence | inhibition, %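 (about 9 µM by stock and volumes)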 | 290,000 tested, 0.75% active | AID 2221; in the data active = inhibition above about 30%;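 also: 0% = vehicle wells and 100% = reference inhibitor control wells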
Target sequence (P9WHJ3 whole entry, looked up): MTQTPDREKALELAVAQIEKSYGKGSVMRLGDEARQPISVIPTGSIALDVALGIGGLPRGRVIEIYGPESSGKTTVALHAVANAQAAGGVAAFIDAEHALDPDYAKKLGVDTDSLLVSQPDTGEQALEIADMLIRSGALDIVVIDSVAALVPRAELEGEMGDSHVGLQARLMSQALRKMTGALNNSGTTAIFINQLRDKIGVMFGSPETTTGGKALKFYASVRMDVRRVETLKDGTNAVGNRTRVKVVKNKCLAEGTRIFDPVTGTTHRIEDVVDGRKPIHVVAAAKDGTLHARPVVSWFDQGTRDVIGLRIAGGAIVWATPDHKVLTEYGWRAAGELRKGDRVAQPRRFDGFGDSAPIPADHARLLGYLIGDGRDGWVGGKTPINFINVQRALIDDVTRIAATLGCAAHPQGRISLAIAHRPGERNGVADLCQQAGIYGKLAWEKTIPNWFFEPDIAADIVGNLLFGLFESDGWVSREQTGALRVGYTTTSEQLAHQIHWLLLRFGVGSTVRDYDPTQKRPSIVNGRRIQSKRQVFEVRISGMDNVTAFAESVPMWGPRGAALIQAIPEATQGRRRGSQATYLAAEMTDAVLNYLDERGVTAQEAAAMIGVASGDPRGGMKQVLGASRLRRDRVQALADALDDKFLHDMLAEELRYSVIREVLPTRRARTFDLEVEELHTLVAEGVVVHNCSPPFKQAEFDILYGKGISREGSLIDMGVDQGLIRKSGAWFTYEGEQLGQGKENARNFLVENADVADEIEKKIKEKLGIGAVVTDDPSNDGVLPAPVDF
Mtb betalactam – beta-lactam sensitization of Mtb H37Rv | inhibition, % at 25 µM | 330,000 tested, 0.27% active | M. tuberculosis H37Rv growth with meropenem, percent inhibition; hits of this screen are not shown here;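 active = about 74% or more and at least 40 points above the plate without the antibiotic, then above 30% in a dose series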;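 also: growth measured after seven days incubation then overnight dye step; 0% = bacteria only wells and 100% = bacteria with antibiotic; twin plates without the antibiotic show which effects depend on it; some results filed as inactive read as strong as hits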
YopH inh – blocks Yersinia enterocolitica YopH tyrosine phosphatase. fluorescence Ex485/Em525. 140,000 tested, 0.16% active. inhibition, %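 (about 10 µM by stock and volumes)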;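 active = inhibition of 50% or more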;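 also: controls were vehicle for no effect and minimum signal wells for full effect; inactives centre near -20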
Mtb growth – M. tuberculosis H37Rv growth inhibitors, H37Rv strain (AID 1626) | 220,000 tested, 0.95% active | M. tuberculosis H37Rv growth inhibition; higher % means a stronger effect | inhibition, % at 10 µM, or IC50 in µM where a hit was titrated;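 active = confirmed in a dose series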;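 also: bacteria incubated seven days before Alamar blue readout; 0% = bacteria only wells and 100% = bacteria with antibiotic wells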
Arbovirus anti repeat – also measured in Arbovirus anti; calls as there; inhibition, %; measured here: 10K subset replicate screen; many hits read low in the repeat;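 first of two repeat runs on a subset; 0% = infected and 100% = uninfected wells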
Starred values were filed as active, the others as inactive; / = not tested or not shown; & = joins results of further samples. Some of the compounds tested; count on the stated rates, not on these rows.

SMILES	Arbovirus anti	RecA intein inh	Mtb betalactam	YopH inh	Mtb growth	others
O=C(CN(c1ccccc1F)S(=O)(=O)c1ccccc1)NC1CCCCCC1	-5	-0.6	-6	-25	0%
CC(Oc1ccccc1)C(=O)Nc1nc2c(s1)C(=O)CC(C)(C)C2 (stereo not drawn)	5	-0.5	-1	-5	2%
COc1ccc(-c2nn(C)c(=O)c3ccccc23)cc1CNC(=O)CN1CCOCC1	/	-1.1	-8	-27	0%
CCCCNS(=O)(=O)c1ccc2nc(SCC(=O)Nc3sccc3C#N)[nH]c2c1	-5	9.7	1	-4	3%
COc1ccc(N(C(=O)C(C)C)S(=O)(=O)c2ccc3c(c2)n(C)c(=O)n3C)cc1	-6	2.2	-3	-24	0%
CC1C(=O)N2CCCc3cc(S(=O)(=O)NCc4ccccc4Cl)cc1c32 (stereo not drawn)	/	1.7	-5	/	/
Cn1c(NC(=O)c2ccc3c(c2)OCO3)cc(=O)n(C)c1=O	-4	-0.2	4	-48	0%	Arbovirus anti repeat=-3
Cc1ccc2nc(Cl)c3cc(C(=O)NCCCN4CCCC4)sc3c2c1	-30	1.1	83	/	3%
O=C(Nc1ccc(Cl)cc1)Nc1ccccc1C(=O)O	7	-2.6	0	/	0%
CCCCn1c(N)c(N(CC)C(=O)c2ccc(N3CCCC3=O)cc2)c(=O)[nH]c1=O	/	1.0	1	/	/

2 entries drawn at random from those above:
SMILES	Arbovirus anti	RecA intein inh	Mtb betalactam	YopH inh	Mtb growth	others
COc1ccc(N(C(=O)C(C)C)S(=O)(=O)c2ccc3c(c2)n(C)c(=O)n3C)cc1	-6	2.2	-3	-24	0%
O=C(CN(c1ccccc1F)S(=O)(=O)c1ccccc1)NC1CCCCCC1	-5	-0.6	-6	-25	0%

(list continues)
SMILES	Arbovirus anti	RecA intein inh	Mtb betalactam	YopH inh	Mtb growth	others
CCN(CC)C(=O)C(=O)N/N=C/c1ccc(C(=O)O)cc1	-16	-0.6	-2	-34	-3%
COCCN1C(=O)C(=O)/C(=C(/O)c2ccc(S(=O)(=O)N3CCOCC3)cc2)C1c1cccc([N+](=O)[O-])c1 (stereo not drawn)	/	-7.1	-1	/	/
CCCCOC(=O)c1ccc(NC(=O)c2c(N)n(C)c(=O)[nH]c2=O)cc1	/	-0.8	-1	/	-8%
COC1(OC)N=C(N)C2(C#N)C(c3cccc(Oc4ccccc4)c3)C12C#N (stereo not drawn)	-4	4.5	-12	-47	-8%
O=C(CN1CCCCCC1)Nc1ccccc1C(=O)Nc1ccccc1	/	1.2	-6	/	/
CCCCCn1c(=O)c(C(=O)NCc2ccccc2Cl)c(O)c2ccccc21	/	1.1	34	/	/
CCc1cccc(N(C(=O)c2csnn2)C(C(=O)NC(C)(C)CC)c2ccccn2)c1 (stereo not drawn)	13	-2.1	-2	/	-2%
CCCn1c(-c2cccs2)nc2nc3ccccc3nc21	-5	-201	-18	-10	-2%
COc1ccc(/C=C(\NC(=O)c2ccccc2)C(=O)NCC2CCCO2)cc1 (stereo not drawn)	/	-1.9	3	/	/
Cc1cc(/C=N/NC(N)=S)c(O)c(/C=N/NC(N)=S)c1	/	-21	61	/	-3%
O=C(COc1ccc(Cl)cc1)NCCSc1ccccc1	0	0.8	5	-10	7%
CCCCc1ccc(NC(=O)CN2NS(=O)(=O)c3ccccc3C2=O)cc1	9	1.0	3	-8	27%
CC(C)c1ccc(Nc2cnn(C34CC5CC(CC(CC(=O)O)(C5)C3)C4)c(=O)c2Cl)cc1	1	1.3	9	-5	-6%
O=C(O)CC1(CC(=O)NCc2csc(-c3cccs3)n2)CCCCC1	/	2.3	13	/	-5%
Cc1nnsc1S(=O)c1ccc(Cl)cc1 (stereo not drawn)	/	-0.2	-3	/	/
CCc1cccc2c(C(=S)N3CCCC3)c[nH]c12	4	0.5	7	/	6%
Cc1ccc(C(=O)Nc2cc(C)c(OCC(=O)N3CCOCC3)c(C)c2)cc1	-6	0.7	1	0	1%
COc1ccc(C(CC(=O)N2CCCCC2)C(C)C)cc1 (stereo not drawn)	/	-0.4	-6	/	-8%
Cc1cc(=O)oc2cc(OCC(=O)OCC(=O)N(C)C3CCS(=O)(=O)C3)ccc12 (stereo not drawn)	/	-0.8	-2	/	/
COc1ccc(NC(=O)N2CCC(n3nnc4cc(C)ccc43)CC2)cc1	2	2.4	-2	-20	-7%
Clc1ccccc1CN(Cc1ccccc1)c1ncnc2nc[nH]c12	-35	-2.6	-3	-23	-4%
Nc1nc(SCc2ccc(Cl)cc2)ns1	1	3.1	84	-46	45%	Arbovirus anti repeat=3
CN(C(=O)COC(=O)c1c2c(nc3ccccc13)CCCC2)c1c(N)n(Cc2ccccc2)c(=O)[nH]c1=O	/	2.6	-7	/	/
CC(C)[C@H](NC(=O)NC1CCCc2ccccc21)C(=O)O (stereo partly drawn)	8	0.5	-5	-50	-1%
CN(C)C(=O)NC(Nc1ccc(Cl)cc1Cl)C(Cl)(Cl)Cl (stereo not drawn)	15	/	0	-16	5%
CC(Nc1ccccc1)c1cccnc1 (stereo not drawn)	0	-3.1	-1	/	3%
Cc1noc(C)c1COc1ccc(C(=O)N2CCCC(C(N)=O)C2)cc1 (stereo not drawn)	/	0.6	-6	/	/
COc1ccc(N2CCN(C(CNC(=O)C(=O)NC3CCCC3)c3ccco3)CC2)cc1 (stereo not drawn)	/	-5.2	-17	/	/
CN1C(=O)/C(=C/c2cccc([N+](=O)[O-])c2)C(=O)N1c1ccccc1	/	0.0	3	/	/
CC(=O)N(Cc1cccs1)C1CCOC(C)(C)C1 (stereo not drawn)	4	0.9	-2	-13	-7%
COc1ccc(-c2nc3c4ccccc4[nH]c(=O)n3n2)cc1	-6	-0.3	-6	-18	-7%
COc1ccccc1N1CCN(C(=O)Cn2nc(C(F)(F)F)c3c2CCC3)CC1	-3	2.5	-13	-10	-4%
CN(c1ccccc1)S(=O)(=O)c1ccc(NC(=O)C2CCCCC2C(=O)O)cc1 (stereo not drawn)	3	-0.3	1	-15	8%
COc1ccc(OC)c(Nc2ncnc3c2cnn3-c2cccc(C)c2)c1	-19	-0.7	-9	-25	15%
CC1=C(C(=O)OCCOc2ccccc2)C(c2coc3ccccc3c2=O)C2=C(CCCC2=O)N1 (stereo not drawn)	9	-11	0	/	-10%
CCCN(CC(=O)Nc1ccccc1C)C(=O)/C=C/c1ccc(S(=O)(=O)N2CCCCCC2)cc1	/	3.3	-10	/	/
CCOC(=O)N1CCN(Cc2nc3cc(NC(=O)c4ccco4)ccc3n2C)CC1	/	-3.4	3	/	/
COc1ccc(S(=O)(=O)Nc2ccccc2C(=O)NCc2ccco2)cc1	5	8.1	-6	-38	0%
CC(NC(=O)CSC(=S)N(C)C)C12CC3CC(CC(C3)C1)C2 (stereo not drawn)	5	/	/	-33	-5%
O=S1(=O)CCC(N=Nc2c(O)n(Cc3ccccc3)c3ccccc23)C1 (stereo not drawn)	/	2.0	-1	/	1%
OCC(C#CCN1CCCCC1)NCc1ccccc1 (stereo not drawn)	8	1.4	8	-29	-14%
Cc1ccc(N(C)S(=O)(=O)c2ccc3[nH]cc(C(=O)NCCCN4CCOCC4)c(=O)c3c2)cc1C	/	2.5	2	/	/
CC(=O)OC(C(=O)NC1CCCCC1)c1ccccc1Cl (stereo not drawn)	-1	-2.2	-11	/	-5%
S=C(NCC1CCCO1)c1ccc(Br)cc1 (stereo not drawn)	/	-0.7	0	/	/
O=c1cc(Nc2ccc3c(c2)OCO3)[nH]c(=O)n1-c1ccc(Br)cc1	8	1.6	5	32	-9%
O=C(Nc1ccc(Br)cc1)c1cc(-c2ccc3c(c2)OCO3)on1	/	5.2	8	/	/
CCC(C)c1ccc(NC(=O)C2CC3CCC2C3)cc1 (stereo not drawn)	/	9.9	54	/	/
Cc1[nH]c2ccc(F)cc2c(=O)c1SC(F)(F)C(F)C(F)(F)F (stereo not drawn)	5	-2.4	1	-5	5%
COc1ccc2[nH]c(C(=O)O)c(NS(=O)(=O)c3ccc(Cl)s3)c2c1	-1	4.3	2	-50	-5%
CC(C)OC(=O)C1C2C=CC3(CN(CC4CCCO4)C(=O)C13)O2 (stereo not drawn)	-4	-2.2&-1.3	-1	-31	-1%
Next part
SMILES	Arbovirus anti	RecA intein inh	Mtb betalactam	YopH inh	Mtb growth	others
CC(C)C[C@H](NC(=O)c1nc[nH]c1C(=O)N1CCN(c2ccccc2)CC1)C(=O)OC(C)(C)C	/	-0.7	3	/	-4%
CCc1ccc(NC(=O)Nc2c(C)n(C)n(-c3ccccc3)c2=O)cc1	-8	0.6	-10	/	4%
CC(C)C(=O)N1CCN(c2ccccc2NC(=S)NC(=O)Cc2ccccc2)CC1	/	1.0	-4	/	/
CC(C(=O)N1CCCC1)N1CCN(c2ccccc2O)CC1 (stereo not drawn)	5	-4.6	-1	/	-5%
CCOc1ccc(NC(=O)CN(C)CC(=O)Nc2ccc(F)c(F)c2F)cc1OCC	1	-3.3	-2	/	-1%
COc1ccc(C(=O)NC2=NCCS2)cc1S(=O)(=O)N1CCCCC1C (stereo not drawn)	1	1.6	15	/	9%
Cc1ccc(N2C(=O)N3[C@H](c4ccc(Br)cc4)[C@@H]4C(=O)N(C(C)(C)C)C(=O)[C@@H]4[C@]3(C)C2=O)cc1	/	2.9	0	/	/
COC(=O)c1ccc(-n2c(C)cc(C(=O)CCl)c2C)cc1	-33	35*	100	/	54%
CCC(C)(C)NC(=O)C(c1ccc(OC)cc1)N(C(=O)CCC(=O)Nc1cc(C)on1)C(C)(C)C (stereo not drawn)	/	-0.1	-4	/	/
O=C(c1ccoc1)N1CCCC(Nc2ccc(F)c(F)c2)C1 (stereo not drawn)	/	-0.7	-3	/	/
Cc1cccc(CS(=O)(=O)c2ncc(Cl)c(C(=O)NCc3ccccc3)n2)c1	/	-0.3	3	/	/
O=S(=O)(Nc1nnc(C2CCCCC2)s1)c1ccc(F)cc1	/	-8.1	-7	/	/
COc1ccc(NC(=O)Cn2c(CCC(=O)O)ccc2-c2ccccc2)cc1	/	-5.0	-4	/	/
O=c1c2ccccc2nnn1COc1ccc(Cl)cc1Br	-1	-0.8	6	/	-3%
CC(C)=CCN1CCN(Cc2ccoc2)CC1CCO (stereo not drawn)	2	-0.6	-4	/	11%
CCOC(=O)C(C)Oc1ccc(=O)n(-c2ccccc2)n1 (stereo not drawn)	1	0.1	-23	-46	0%
CN(C)c1ccc(N=Nc2ccc(S(N)(=O)=O)cc2)cc1	/	3.8	-2	/	/
CCOC(=O)C1=C(CNCc2ccccc2Cl)NC(=O)NC1c1cccc([N+](=O)[O-])c1 (stereo not drawn)	-1	3.5	-6	/	-2%
COc1ccc(C[C@@H]2CN3C(=NC[C@@H]3C)N2C[C@H](C)NC(=O)CCC2CCCCC2)cc1	16	1.6	-4	/	-6%
Cn1c(=O)c(/C(N)=N/OC(=O)c2ccccc2)cn(-c2ccccc2)c1=O	/	-1.4	-8	/	-3%

Compounds from the list above with an NH in an aromatic ring:
SMILES	Arbovirus anti	RecA intein inh	Mtb betalactam	YopH inh	Mtb growth	others
CCCCNS(=O)(=O)c1ccc2nc(SCC(=O)Nc3sccc3C#N)[nH]c2c1	-5	9.7	1	-4	3%
CCCCn1c(N)c(N(CC)C(=O)c2ccc(N3CCCC3=O)cc2)c(=O)[nH]c1=O	/	1.0	1	/	/
CCCCOC(=O)c1ccc(NC(=O)c2c(N)n(C)c(=O)[nH]c2=O)cc1	/	-0.8	-1	/	-8%
CCc1cccc2c(C(=S)N3CCCC3)c[nH]c12	4	0.5	7	/	6%
Clc1ccccc1CN(Cc1ccccc1)c1ncnc2nc[nH]c12	-35	-2.6	-3	-23	-4%
CN(C(=O)COC(=O)c1c2c(nc3ccccc13)CCCC2)c1c(N)n(Cc2ccccc2)c(=O)[nH]c1=O	/	2.6	-7	/	/
COc1ccc(-c2nc3c4ccccc4[nH]c(=O)n3n2)cc1	-6	-0.3	-6	-18	-7%
Cc1ccc(N(C)S(=O)(=O)c2ccc3[nH]cc(C(=O)NCCCN4CCOCC4)c(=O)c3c2)cc1C	/	2.5	2	/	/
O=c1cc(Nc2ccc3c(c2)OCO3)[nH]c(=O)n1-c1ccc(Br)cc1	8	1.6	5	32	-9%
Cc1[nH]c2ccc(F)cc2c(=O)c1SC(F)(F)C(F)C(F)(F)F (stereo not drawn)	5	-2.4	1	-5	5%
COc1ccc2[nH]c(C(=O)O)c(NS(=O)(=O)c3ccc(Cl)s3)c2c1	-1	4.3	2	-50	-5%
CC(C)C[C@H](NC(=O)c1nc[nH]c1C(=O)N1CCN(c2ccccc2)CC1)C(=O)OC(C)(C)C	/	-0.7	3	/	-4%
